# Source: PubChem BioAssay (National Center for Advancing Translational Sciences (NCATS))
# TDP1 cell CPT: DT40-hTDP1 cell growth loss with CPT; 420,000 tested, 12% active; Potency, µM (series often up to 46.2 µM), for inactives: top-dose activity change, negative = growth inhibition, hits mostly inhibitors; chicken DT40 Tdp1-/-;hTDP1 cells + 20 nM CPT, ATP luminescence, 48 h; AID 686979; further: nearly all actives have a fitted effect of over 55% in size
#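 Cell growth measured by CellTiter-Glo luminescence after a minimum 48 h, 37 C compound exposure with 20 nM CPT in Tdp1-knockout DT40 cells stably expressing hTDP1, seeded 400/well; qHTS titration format.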
# FEN1 inh: human FEN1 inhibition; Potency, µM (titrated, usually from 114 µM), for inactives: top-dose activity change, negative = inhibition, hits mostly inhibitors; P39748; 390,000 tested, 0.35% active; AID 588795; Recombinant FEN1 flap cleavage, fluorescence, 15 min; further: nearly all actives have a fitted effect of over 65% in size
# Target sequence (P39748 whole entry, looked up): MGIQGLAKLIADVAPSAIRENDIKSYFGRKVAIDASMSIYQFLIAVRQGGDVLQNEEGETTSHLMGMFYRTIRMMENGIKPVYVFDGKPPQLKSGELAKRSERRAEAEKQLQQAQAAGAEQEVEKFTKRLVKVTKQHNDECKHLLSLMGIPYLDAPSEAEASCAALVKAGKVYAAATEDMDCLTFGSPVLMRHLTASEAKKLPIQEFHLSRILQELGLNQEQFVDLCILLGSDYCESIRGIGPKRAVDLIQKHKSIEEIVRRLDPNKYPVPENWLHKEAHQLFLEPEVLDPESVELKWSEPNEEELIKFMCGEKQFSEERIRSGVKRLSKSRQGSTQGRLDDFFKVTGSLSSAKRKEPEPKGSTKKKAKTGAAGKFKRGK
#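 Enzyme 10 nM, 15 min RT preincubation with compound; start with substrate 50 nM final; reads at 0 and 15 min; qHTS titration, four-parameter Hill fit.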
# * marks the source's active call; other numbers are inactive results; ? = inconclusive; nt = not tested or not shown; & = joins results of further samples. The call rests on the fitted dose curve; in most records, active means well fitted curve in the direction sought with a large enough effect; inconclusive means small, poorly fitted or top-dose-only effect, or another doubt; inactive means no such curve, though single readings can be large; an effect the other way counts as inactive or inconclusive. On the % scale 0 is the no-effect control and ±100 the full control effect; potency means the concentration at half of the fitted maximal effect. A portion of the library; most or all hits stand in other tables.
SMILES,TDP1 cell CPT,FEN1 inh
COc1ccc(CNC(=O)C2CCN(S(=O)(=O)N3CCC4(CC3)OCCO4)CC2)c(OC)c1,?,-1%
O=S(=O)(c1ccc(Cl)cc1)c1cnc2ccccc2n1,-77%,-52%
Cc1cccc(N(CC(=O)N/N=C/c2ccccc2C(=O)O)S(C)(=O)=O)c1C,-15%,2%
CCC12CN3CCN(CC(C3)/C1=N\NC(=O)c1ccc(F)cc1)C2,?,1%
COc1ccc(CCNC(=O)CSc2nnnn2-c2ccc(OC)c(OC)c2)cc1OC,-2%,-4%
Cc1ccc(SCCC(=O)N(C)C)cc1,-4%,-16%
CCN(CC)S(=O)(=O)c1ccc(C(=O)Oc2cc(C)[nH]c(=O)c2[N+](=O)[O-])cc1,0%,4%
Cc1ccc(C)n1-c1nnc(N2CCCC(C(=O)Nc3ccccc3Br)C2)s1 (stereo not given),?,2%
CCC1(C)CC(=O)c2c(ccc3oc(C(=O)Nc4ccc(C(C)=O)cc4)c(C)c23)O1 (stereo not given),?,13%
Cc1ccccc1NC(=O)NCCCN1CCN(C)CC1,1%,-5%
CCC(=O)Nc1nnc(S(=O)(=O)N2CCc3ccccc32)s1,-17%&-9%,19%&-8%
O=C(C/C=N/OCc1ccc(F)cc1Cl)c1cnc(-c2ccccc2)s1,-11%,0%
Cc1cccc(C)c1NC(=O)CN1CCN(C(=O)C2CCC2)CC1,13%,-10%
CCC(=O)N(c1nnc(SCC(=O)Nc2ccc(N3CCOCC3)cc2)s1)C1CC1,-5%,4%
CC(CCc1ccccc1)NC(=O)CNc1cccc([N+](=O)[O-])c1 (stereo not given),?,-7%
O=C1C2C3C=CC(CC3)C2C(=O)N1c1cccc(C(F)(F)F)c1 (stereo not given),14%,6%
CCCn1nnnc1SCC(=O)N1CCCCC1,14%,11%
Cc1c(Cc2ccc3c(c2)OCO3)sc(NC(=O)c2ccc3ccccc3c2)c1C(N)=O,?,11%
CCc1ccc(NC(=O)C(=O)N/N=C(\C)CC(=O)Nc2ccc(OC)cc2)cc1,1%,-8%
CC(=O)O/N=C(\N)c1ccc(-c2csnn2)cc1,1%,0%
O=C(CSc1nnc(-c2ccco2)o1)NC1CCCCC1,0%,-1%
O=C(Cc1ccc([N+](=O)[O-])cc1)Nc1ccc(Cl)cc1,?,2%
Cc1cccc(C(=O)NC2CCN(C(=O)Nc3ccc(F)cc3)CC2)c1,-21%,4%
CC(C)CCNC(=O)c1ccc2c(c1)nc1n2CCCCC1,?,6%
N=C1C(c2nc3ccccc3s2)=C(O)CN1c1ccccc1,5%,-15%

# Continued.
SMILES,TDP1 cell CPT,FEN1 inh
CN(C)c1cccc(N(C)C)c1CNC(=O)C(C)(C)C,-7%,3%
COc1ccc(C2=NN(S(C)(=O)=O)C(c3ccc4nccnc4c3)C2)cc1 (stereo not given),?,-3%
O=C(Nc1ccc(Cl)cc1)Nc1nc(-c2ccccc2)cs1,?,-3%
COC(=O)c1cc(C(=O)OCC(=O)c2ccc[nH]2)cc([N+](=O)[O-])c1,-6%,10%
C=CCN(CC=C)C(=O)Cc1ccc(F)cc1,13%,-8%
Cc1ccccc1/C=N/Nc1ncnc2nc[nH]c12,-16%,11%
Cc1cccc(-n2nnc(C(=O)NCc3ccccc3)c2N)c1,-10%,-1%
CCOc1ccc(NC(=O)C2CCC(CNc3c(N4CCOCC4)c(=O)c3=O)CC2)cc1 (stereo not given),1%,-16%
Cc1ccc2nc(C)c(C(=O)N/N=C/c3ccc(C(=O)O)cc3)cc2c1,-1%,-8%
CCC(C)(C)n1nnnc1CN1CCSCC1,-22%,0%
O=C(CSc1n[nH]c(=O)[nH]c1=O)Nc1c(Cl)cc(Cl)cc1Cl,4%,1%
COc1ccc(N=C/C=C2/C=C(c3ccccc3)OC(C)(C)O2)cc1,-7%,1%
COc1cc(C2c3c(-c4ccccc4O)n[nH]c3C(=O)N2CCO)ccc1OCc1ccccc1 (stereo not given),-28%,4%
COc1ccccc1N1CCN(CCCCNC(=O)c2ccc(-c3ccc(C(C)=O)cc3)cc2)CC1,2%&4%,nt
C=CCn1c(-c2ccc3[nH]c(C)c(C)c3c2)n[nH]c1=S,?,0%
Cc1cccc(C)c1NS(=O)(=O)c1c(C)[nH]c(=O)[nH]c1=O,-11%,-1%
COC(=O)c1cccc2c1-c1ccccc1/C2=N/O,16µM*,-19%
Cc1ccc(NS(=O)(=O)c2cc(C(=O)N3CCN(CCO)CC3)ccc2C)cc1,-10%,19%
COc1ccccc1C(C[N+](=O)[O-])c1c[nH]c2ccccc12 (stereo not given),?,-15%
NC(=O)[C@@H]1CCCN1C(=O)c1cc(COc2ccc(F)cc2F)on1,-3%,-7%
CCOC(=O)c1ccc(NC(=O)c2cc(F)c(F)cc2Cl)cc1,13%,-5%
O=C(CNC(=O)c1ccc(Oc2ccccc2)cc1)OC1CCCCC1=O (stereo not given),1%,-1%
COc1ccccc1NC(=O)Nc1cccc(NC(C)=O)c1,-2%,5%
Cc1cc(C(=O)OCC(N)=O)c(C)n1-c1ccccc1,?,-1%
CCOc1ccc(-c2[nH]ncc2Oc2ccccc2OCC)c(O)c1,6.5µM*,-23%

# Carrying on.
SMILES,TDP1 cell CPT,FEN1 inh
Cc1cc(C)n(CC(C)O)c(=O)c1C#N (stereo not given),-1%,-17%
O=C(CSCc1ccc(Cl)c(Cl)c1)Nc1c[nH]c(=O)[nH]c1=O,-28%,10%
CC1=CN2C(=NC(=O)CC2(C)C(=O)N(CC(=O)NC2CCCC2)Cc2ccc(Cl)cc2)C=C1 (stereo not given),0%,2%
CCOC1OC(=O)C(Cl)=C1Nc1cc(C)ccc1C (stereo not given),2%,-1%
COc1ccc(C(=O)Nc2ccnn2C2CCN(CCC(C)c3ccc(C)o3)CC2)cc1 (stereo not given),?,0%
CCOc1ccc(C(=O)NCC(=O)NCC(c2ccc(OC)cc2)N2CCOCC2)cc1OCC (stereo not given),9%,-3%
Cc1nn(S(=O)(=O)N(C)C)c(C)c1CN1C(=O)c2ccccc2C1=O,-12%,-2%
O=C(Nc1ccnn1C1CCN(Cc2ccc(OC(F)F)cc2)CC1)C1CCCC1,?,17%
N#C/C(=C\c1ccc2c(c1)OCO2)C(N)=S,-2%,-10%
Cc1ccc(S(=O)(=O)N2CCC(N3CCCCCC3)CC2)cc1,-27%,4%
CC1CCN(CCCOc2ccc(Cl)cc2Br)CC1,?,2%
CC1CCCC(NC(=O)c2cc(S(=O)(=O)N3CCCCC3)ccc2Cl)C1C (stereo not given),?,0%
Cc1ccc(S(=O)(=O)NC2(C(F)(F)F)NC(=O)N(c3ccc(F)cc3)C2=O)cc1 (stereo not given),-6%&-12%,2%&5%
O=C(CCCCCNC(=O)N1CCn2c1nc1ccccc12)NCc1ccccc1Cl,?,5%
CCCCNc1ccc(-c2nc(-c3ccco3)no2)cc1[N+](=O)[O-],-26%,5%
COc1ccccc1NC(=O)c1ccc(C)c(S(=O)(=O)N2CCCCC2)c1,?,-2%
CC(C)(C)c1ccc(C(=O)NNC(=O)C(=O)N2CCCCC2)cc1,-28%,11%
CCNCCNC(=O)c1c(O)c2cccc3c2n(c1=O)CCC3,?,5%
O=C(Nc1nc2ccc(S(=O)(=O)N3CCCC3)cc2s1)C1CCCO1 (stereo not given),-26%,-1%
CCOC(=O)C1=CN(Cc2ccco2)S(=O)(=O)NC1c1ccc(F)c(Cl)c1 (stereo not given),-28%,-16%
COc1ccc(/C=C/C(=O)N(C)Cc2cccs2)cc1S(=O)(=O)N1CCOCC1,-2%,1%
O=C(NCCNC(=O)c1ccccc1Br)c1ccccc1Br,-1%,22%
CCN(CC)S(=O)(=O)c1cc(C(=O)Nc2ccccn2)ccc1C,-17%,-10%
COCCN(C(=O)c1ccc(N2CCCC2=O)cc1)c1c(N)n(Cc2ccccc2)c(=O)[nH]c1=O,-5%,18%
CC(C)CN(C(=O)c1ccc2c(c1)OCCO2)c1c(N)n(Cc2ccccc2)c(=O)[nH]c1=O,-18%,-2%

# New compounds follow.
SMILES,TDP1 cell CPT,FEN1 inh
COc1ccc(-c2csc(NC(=O)c3cccc(N4C(=O)CCC4=O)c3)n2)cc1OC,4.1µM*,3%
C/C=C/Cn1c(Br)nc2c1c(=O)[nH]c(=O)n2C,-5%,13%
CCOc1ccc(CCNC(=O)CN2C(=O)c3cccnc3Oc3ccc(Cl)cc32)cc1,?,3%&13%
CC(C)N(N=Nc1ccc([N+](=O)[O-])cc1)C(C)C,?,11%
CCc1ccccc1NC(=S)N(CCN1CCOCC1)C1CCN(C(C)=O)CC1,7%,-8%
CC1CCN(CC(O)COc2ccc(C(=O)c3ccccc3)cc2)CC1 (stereo not given),-27%,-2%
CC(C)(C)N1CSC(=S)N(Cc2ccccc2)C1,5.2µM*,0%
CCOC(=O)c1cccc(NC(=O)CSc2nnc(C)n2Cc2ccccc2)c1,-18%,5%
Cc1nn(Cc2ccc(C(=O)N3N=C(C(F)F)CC3(O)C(F)F)cc2)c(C)c1[N+](=O)[O-] (stereo not given),?,-15%
c1ccc(-c2nc(N3CCN(c4ccccc4)CC3)nc(-n3ccnc3)n2)cc1,?,-12%
CC(=O)c1cccc(NS(C)(=O)=O)c1,-20%,-6%

# Nothing new here: an excerpt of the list.
SMILES,TDP1 cell CPT,FEN1 inh
C/C=C/Cn1c(Br)nc2c1c(=O)[nH]c(=O)n2C,-5%,13%
CCOc1ccc(CCNC(=O)CN2C(=O)c3cccnc3Oc3ccc(Cl)cc32)cc1,?,3%&13%
CC(C)N(N=Nc1ccc([N+](=O)[O-])cc1)C(C)C,?,11%
CCc1ccccc1NC(=S)N(CCN1CCOCC1)C1CCN(C(C)=O)CC1,7%,-8%
CC1CCN(CC(O)COc2ccc(C(=O)c3ccccc3)cc2)CC1 (stereo not given),-27%,-2%

# Structural class, the entries above containing a Cl atom
SMILES,TDP1 cell CPT,FEN1 inh
O=S(=O)(c1ccc(Cl)cc1)c1cnc2ccccc2n1,-77%,-52%
O=C(C/C=N/OCc1ccc(F)cc1Cl)c1cnc(-c2ccccc2)s1,-11%,0%
O=C(Cc1ccc([N+](=O)[O-])cc1)Nc1ccc(Cl)cc1,?,2%
O=C(Nc1ccc(Cl)cc1)Nc1nc(-c2ccccc2)cs1,?,-3%
O=C(CSc1n[nH]c(=O)[nH]c1=O)Nc1c(Cl)cc(Cl)cc1Cl,4%,1%
CCOC(=O)c1ccc(NC(=O)c2cc(F)c(F)cc2Cl)cc1,13%,-5%
O=C(CSCc1ccc(Cl)c(Cl)c1)Nc1c[nH]c(=O)[nH]c1=O,-28%,10%
CC1=CN2C(=NC(=O)CC2(C)C(=O)N(CC(=O)NC2CCCC2)Cc2ccc(Cl)cc2)C=C1 (stereo not given),0%,2%
CCOC1OC(=O)C(Cl)=C1Nc1cc(C)ccc1C (stereo not given),2%,-1%
CC1CCN(CCCOc2ccc(Cl)cc2Br)CC1,?,2%
CC1CCCC(NC(=O)c2cc(S(=O)(=O)N3CCCCC3)ccc2Cl)C1C (stereo not given),?,0%
O=C(CCCCCNC(=O)N1CCn2c1nc1ccccc12)NCc1ccccc1Cl,?,5%
CCOC(=O)C1=CN(Cc2ccco2)S(=O)(=O)NC1c1ccc(F)c(Cl)c1 (stereo not given),-28%,-16%
CCOc1ccc(CCNC(=O)CN2C(=O)c3cccnc3Oc3ccc(Cl)cc32)cc1,?,3%&13%
